Ecoli growth = E. coli growth inhibition | OD600 absorbance (no concentration beside the values) | hit rate 0.21% among 330,000 | Escherichia coli growth, OD600, 23 h; hits give low values;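 active = OD600 absorbance below the run mean of sample wells minus 3.6 SD, in any replicate, cut at about 0.56 in these data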;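 also: stock transfer was 300 nL into about 60 µL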
Beta apoptosis = beta cell apoptosis inhibition | INS-1E cytokine-induced death, ATP luminescence, 48 h; percent of positive-control rescue, neutral wells zero | hit rate 0.8% among 300,000 | protection from apoptosis, % (concentration not given with the values);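 active = all replicates at 75% or more, or half of them and the mean; inconclusive = half reach 75% but not the mean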;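 also: 0% = cytokine-treated negative control wells and 100% = positive control rescue; higher means more ATP so stronger rescue from cytokine killing; wells of about 40 µL received 100 nL stock; the first replicate is given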
A1 inh = inhibitors of the anti-apoptotic protein A1, read as caspase activation; MEF A1-2A-BIM cells, Caspase-Glo 3/7 luminescence, 3 h; percent of clofoctol response, vehicle zero; caspase activation, % (no concentration beside the values); hit rate 0.066% among 330,000; AID 2462;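 active = over half of replicate activation scores above 10%, or exactly half above 10 with the replicate mean above 10; inconclusive = replicate mean below 10 yet half the replicates above 10; inactive = over half of replicates below 10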;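 also: wells of about 30 µL received 50 nL stock; many hits fall short of the cut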
T cruzi inh = T. cruzi replication inhibition; T. cruzi beta-gal in NIH3T3, luminescence, 90 h; inhibition, % (no concentration beside the values); hit rate 1.4% among 300,000;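 active = mean inhibition across valid replicates above about 55%, limit read from the data; inconclusive = mean below that limit but half or more replicates reach it; inactive = mean below it, under half of replicates reach it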;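 also: signal also drops with host cell toxicity which is not excluded here; 0% = plate median of DMSO wells and 100% = zero luminescence signal; higher percent means less beta-gal luminescence so fewer parasites; stock transfer was 50 nL into about 50 µL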
Ecoli rRNA inh = selective bacterial rRNA inhibition in E. coli; E. coli WT GFP vs humanized-ribosome RFP mutants, fluorescence, 24 h; hits give low values; DMSO median 0, no signal -100; GFP signal change (wild-type ribosome), % (test concentration not listed); hit rate 1.6% among 350,000; AID 720706;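 active = significant combined selectivity score with lowered wild-type GFP, culture density cut under 30%, mutant RFP and density less affected; inactive = any of these conditions unmet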; also: one replicate is shown; some compounds called inactive have numbers as strong as hits
UCH37 inh = human UCH37 deubiquitinating enzyme inhibition | Q9Y5K5 | purified proteasome/UCH37, Ub-AMC cleavage fluorescence | inhibition, % (no concentration beside the values) | hit rate 0.33% among 330,000 | AID 588478;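 active = mean of two replicates above 20%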;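 also: 0% = compound-free wells with enzyme and 100% = wells lacking proteasome; stock transfer was 100 nL into about 20 µL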
Target sequence (Q9Y5K5 whole entry, looked up): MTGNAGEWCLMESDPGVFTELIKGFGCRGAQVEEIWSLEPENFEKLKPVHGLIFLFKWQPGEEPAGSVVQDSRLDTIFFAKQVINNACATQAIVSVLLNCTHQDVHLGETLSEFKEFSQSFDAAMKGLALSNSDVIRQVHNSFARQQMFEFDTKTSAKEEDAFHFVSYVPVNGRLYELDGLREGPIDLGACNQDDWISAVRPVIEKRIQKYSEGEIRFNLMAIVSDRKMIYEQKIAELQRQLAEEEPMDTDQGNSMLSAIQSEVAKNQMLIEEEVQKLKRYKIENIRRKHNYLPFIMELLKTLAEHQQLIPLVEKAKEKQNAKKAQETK
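Test system – human UCH37 enzyme supplied as purified proteasome complex · Incubation – 30 min preincubation with enzyme, 25 min cleavage at room temperature · Detection – AMC fluorescence from Ub-AMC cleavage, excitation 355 nm, emission 460 nm · Benchmarks – no-proteasome wells (full inhibition) and compound-free wells (no inhibition)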
FGF22 binding = shifts melting point of recombinant human FGF22 | Q9HCT0 | recombinant FGF22 thermal shift, SYPRO orange fluorescence; percent of sucrose octasulfate shift, DMSO zero | calls only at 9.99 µM | hit rate 1.5% among 340,000;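 active = melting point raised past a set limit in the mean and every replicate; inconclusive = no clear call; three in four hits are not shown here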
Target sequence (Q9HCT0 whole entry, looked up): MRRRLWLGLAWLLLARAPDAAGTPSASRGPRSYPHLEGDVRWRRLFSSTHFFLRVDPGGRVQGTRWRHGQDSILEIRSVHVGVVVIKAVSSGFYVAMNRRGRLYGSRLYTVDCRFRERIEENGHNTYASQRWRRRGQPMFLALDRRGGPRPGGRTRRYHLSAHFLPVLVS
AF4-AF9 inh = MLL-AF4/AF9 protein interaction inhibition | AlphaScreen, biotin-AF4 peptide binding to FLAG-AF9 | AID 651704 | hit rate 0.47% among 350,000 | inhibition, % at 10 µM | P42568;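 active = every replicate reaching a set inhibition limit, whatever the replicate mean, cut at about 25% in these data; inconclusive = mean inhibition reaches that limit but some replicates miss it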;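 also: 0% = plate neutral control median and 100% = total signal loss; the record names both 10 and 1 µM as test concentration; the first replicate is given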
Target sequence (P42568 whole entry, looked up): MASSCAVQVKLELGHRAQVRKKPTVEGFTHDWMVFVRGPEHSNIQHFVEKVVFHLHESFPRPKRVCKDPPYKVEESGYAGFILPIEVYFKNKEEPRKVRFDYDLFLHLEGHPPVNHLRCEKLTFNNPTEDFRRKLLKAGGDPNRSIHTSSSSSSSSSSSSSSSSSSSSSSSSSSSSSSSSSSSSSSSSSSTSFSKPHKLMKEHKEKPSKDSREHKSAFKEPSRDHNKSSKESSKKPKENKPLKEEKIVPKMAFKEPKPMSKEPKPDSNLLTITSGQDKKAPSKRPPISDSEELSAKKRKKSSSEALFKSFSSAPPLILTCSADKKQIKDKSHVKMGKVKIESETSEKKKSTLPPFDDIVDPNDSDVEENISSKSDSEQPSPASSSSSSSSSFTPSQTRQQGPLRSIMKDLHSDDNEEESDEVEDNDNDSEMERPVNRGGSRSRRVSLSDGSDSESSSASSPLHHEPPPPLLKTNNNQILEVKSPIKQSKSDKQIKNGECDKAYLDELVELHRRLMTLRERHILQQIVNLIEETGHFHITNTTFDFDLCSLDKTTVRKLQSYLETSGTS
Ecoli rRNA inh OD600 = recorded beside Ecoli rRNA inh, whose call it bears; OD600 change, %; measured here: OD600 growth;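 optical density of the mix in the first replicate; 0 = DMSO median and -100 = no signal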
Ecoli rRNA inh RFP = second read-out of Ecoli rRNA inh, no call of its own (marks repeat the call); RFP signal change, %; measured here: RFP humanized mutant strains;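 first replicate; 0 = DMSO median and -100 = no signal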
The depositor's hits bear a star; i = inactive; ? = inconclusive; . = no result given; & = joins results of further samples. This is a subset. The share of hits here may be higher or lower than overall.

SMILES	Ecoli growth	Beta apoptosis	A1 inh	T cruzi inh	Ecoli rRNA inh	Ecoli rRNA inh OD600	Ecoli rRNA inh RFP	UCH37 inh	FGF22 binding	AF4-AF9 inh
Cc1c(N=Nc2c(O)[nH]c(=O)[nH]c2=O)c(=O)n(-c2ccccc2)n1C	0.657	-3.1	-0.4	-2.5	23.9	25.0	-2.1	17.5	i	-3.0
COP(=O)(OC)C(Nc1ccccc1)c1ccccc1 (stereo unspecified)	0.644	0.6	0.9	-23.9	12.2	1.1	0.8	0.5	i	-0.6
Cc1ccc(-c2nc3ccccc3c(=O)n2-c2ccc(O)cc2)cc1	0.696	-5.1	-0.7	27.6	-11.8	-6.6	18.3	4.7	.	1.4
COc1cccc(NP(=O)(Oc2ccccc2Cl)Oc2ccccc2Cl)c1	0.678	-2.8	-0.1	14.0	-20.0	-28.5	4.7	5.8	i	0.3
COC(=O)C1=C(c2ccc(OC(F)(F)F)cc2)C[C@@H]2CC[C@H]1N2C(=O)NCc1ccc(F)cc1	.	-22.6	1.3	.	4.1	-4.8	3.2	0.1	i	-2.1
O=C(CCc1nnc2ccc(NCc3ccccc3)nn12)N1CCC2(CC1)OCCO2	0.695	-1.4	-1.7	3.8	1.2	4.4	-2.4	-4.2	i	1.3
CCOC(=O)CSc1ccc(C(=O)N2CCC3(CC2)OCCO3)cc1[N+](=O)[O-]	0.673	1.4	1.2	-5.6	18.9	13.7	1.0	3.1	i	4.2
CN1CCCN(C(=O)COc2ccc(Br)cc2)CC1	0.709	2.6	0.4	8.6	2.5	0.8	-0.8	2.9	i	-1.9
Cc1cccc(-n2c(/C=C/c3ccccn3)nc3ccccc3c2=O)c1	0.716	6.9	-0.2	-12.6	22.6	4.4	-2.9	-70.5	i	-0.5
COc1cc(C(=O)NC(=S)N2C[C@H]3C[C@H](C2)c2cccc(=O)n2C3)cc(OC)c1OC	0.743	-1.7	1.0	-5.8	.	.	.	0.2	i	-2.0
COC1=C[C@@H]2C3=C([C@@H]2C1=O)[C@@H](NC(C)=O)CCc1cc(OC)c(OC)c(OC)c13	.	-7.0	1.2	.	.	.	.	1.8	i	-3.4
COC(=O)C1=C(c2ccc(C(C)=O)cc2)C[C@@H]2CC[C@H]1N2C(=O)NC(C)C	.	-1.2	0.8	.	9.6	8.8	0.3	0.2	i	-2.2
CC(=O)NC1CC2CCCC(C1)N2 (stereo unspecified)	0.707	-3.5	0.5	-8.0	.	.	.	1.0	.	.
CCCCOP(=O)(OCCCC)/C(C#N)=C(/C)O	.	-1.4	-0.1	-21.7	.	.	.	-0.1	.	.
Cc1ccc(C)c(NC(=S)NCCc2cnc[nH]2)c1	0.706	-8.3	-0.3	-1.5	4.5	-3.5	-1.9	6.6	i	-0.1
CC1(C)CN(S(=O)(=O)OCC(Cl)(Cl)Cl)C(=O)N1	0.668	-3.2	0.0	13.0	16.4	14.8	2.9	4.6	i	-0.6
CCCC[N+]12CCC(CC1)C(C(=O)c1cccs1)C2 (stereo unspecified)	0.719	-1.9	-1.1	-18.5	.	.	.	-0.6	.	.
O=C1NC(=O)C(CCc2ccccn2)(Cc2ccc3c(c2)OCO3)C(=O)N1CCc1ccccc1 (stereo unspecified)	0.729	-2.1	1.0	1.4	.	.	.	0.0	.	.
C[C@H](NC(=O)CCC(=O)N1C[C@H]2C[C@H](C1)c1cccc(=O)n1C2)c1ccccc1	0.779	.	-0.1	-0.4	9.4	6.7	-6.7	2.8	i	6.8
Cc1ccccc1[N+](=O)[O-]	0.681	5.1	-0.3	.	0.6	5.4	-1.7	0.1	i	.
CN1CC(C(=O)c2ccc([N+](=O)[O-])cc2)C(c2ccc(Cl)cc2)C1 (stereo unspecified)	0.697	-1.1	0.4	30.7	-2.7	0.9	-8.5	2.2	i	6.4
Cc1ccc(C)c(Cn2c(C(=O)O)c(C=O)c3ccccc32)c1	0.711	3.1	0.6	9.9	-0.6	-7.4	0.3	5.4	i	-2.5
CCN(CC)C(=O)c1ccc(NC(=O)c2cc(-n3cnnc3)ccc2Cl)cc1	0.703	-4.1	0.0	-12.5	.	.	.	4.3	.	.
CCC1(c2ccccc2)C(=O)NC(=O)NC1=O	0.747	.	.	.	12.4	9.6	3.5	1.8	i	.
Cc1ccc(C2(O)CN3CCC2CC3)cc1 (stereo unspecified)	0.702	3.6	0.4	-13.2	2.1	5.9	-2.9	3.3	i	-2.3
CC1(C)CSC(=NCc2ccccc2)N1	0.621	-5.7	0.2	-5.6	5.5	11.6	1.0	0.2	i	0.2
Cc1ccc(S(=O)(=O)N2CC3CC(C2)c2cccc(=O)n2C3)cc1 (stereo unspecified)	0.699	-4.9	0.8	7.5	.	.	.	4.1	.	.
Cc1[nH]c2ccccc2c1CCCNC1CCCCC1	.	1.7	0.6	14.2	.	.	.	3.4	.	.
CCN(CC)c1ccc(/C=C2/C(=O)NC(=O)N(Cc3ccco3)C2=O)cc1	0.682	-11.0	0.2	-34.3	.	.	.	5.2	.	.
COCCNC(=O)Cn1cc(/C=C2\C(=O)NC(=O)N(c3cccc(C)c3C)C2=O)c2ccccc21	0.624	-3.1	0.1	-9.7	21.1	11.4	0.9	4.4	i	-3.8
CCCOP(=O)(OCCC)C(NC(=O)c1cc(OC)c(OC)c(OC)c1)c1ccccc1 (stereo unspecified)	0.663	-4.7	0.7	5.6	7.7	6.0	1.3	0.2	i	0.6
COc1cc(CNCCc2ccc3c(c2)OCO3)cc(OC)c1OC	0.703	-2.5	-0.9	35.1	7.8	-2.4	-2.2	1.0	i	0.9
CN1C(CC(O)c2ccccc2)CCCC1CC(O)c1ccccc1 (stereo unspecified)	0.659	-5.4	0.2	.	4.7	6.5	-1.3	0.0	i	-3.6
O=[N+]([O-])c1cccc(NP(=O)(N2CC2)N2CC2)c1	0.651	.	.	.	3.8	9.5	-2.5	4.6	i	0.5
CCCCNC(C)Cc1ccccc1 (stereo unspecified)	0.763	.	.	.	7.8	7.7	0.2	0.3	i	.
C=CCN1C(=O)C2(C(C(=O)OCC)=C(N)Oc3ccccc32)C2=C1CCCC2=O (stereo unspecified)	0.732	2.5	-0.2	-3.0	.	.	.	3.6	.	.
Cc1ccc(N2C(=O)NC(=O)C(CCc3ccccn3)(Cc3cccc(Cl)c3Cl)C2=O)cc1 (stereo unspecified)	0.617	5.8	1.7	-18.7	.	.	.	0.9	.	.
CCOc1cc(C)cc2oc(=O)c3c(c12)CCCC3	0.625	1.9	-0.8	-1.4	0.0	-1.1	-1.4	-20.8	i	-0.5
Cc1cccc(NC(=O)CN2CCN(C(=O)COc3cccc(Br)c3)CC2)c1C	0.64	-3.4	-0.4	.	.	.	.	2.5	i	0.2
Oc1ccc2c3c1OC1[C@H](O)CC[C@@]4(O)[C@@H](C2)N(CC2CC2)CC[C@]314 (stereo partly specified)	0.741&0.74	.	.	.	5.1&1.6	6.4&4.2	-1.3&1.0	1.7&0.7	i	.
O=C(Cn1ccc2ccccc2c1=O)NCC(=O)N1CCC2(CC1)OCCO2	0.661	-9.2	-0.3	-5.3	7.8	4.1	-3.5	0.4	i	-0.8
Cn1c(O)c(/C=C2\C=Nc3ccccc32)c(=O)n(C)c1=O	0.7	-4.3	1.2	-5.0	20.4	6.9	0.8	2.2	i	6.4
N#CC1C(C#N)C2CCC1C1C2N1c1ccccc1 (stereo unspecified)	0.673	.	.	.	1.2	0.9	-2.9	4.4	i	-1.2
COC(=O)C1=C(c2ccc(OC(F)(F)F)cc2)C[C@@H]2CC[C@H]1N2C(=O)NC1Cc2ccccc2C1	.	-1.4	0.5	.	6.9	-4.9	3.7	7.0	i	-0.2
CCCC[N+]12CCC(CC1)C(Cc1ccccc1)C2 (stereo unspecified)	0.675	-9.7	0.7	1.7	6.8	6.6	-0.4	3.7	i	-1.8
COC(=O)c1cc(C(O)(C(=O)OC)C(F)(F)F)c(/N=C/N(C)C)s1 (stereo unspecified)	.	-1.6	?	-14.9	4.6	-6.2	-8.4	.	.	2.5
O=C(O)CC1OCC=C2CN3CCC45C6=CC(=O)C(=O)C([N+](=O)[O-])=C6NC4C1C2CC35 (stereo unspecified)	0.684	-14.1	-0.6	7.2	.	.	.	96.7*	.	.
COc1ccc(OC)c(N2C(=O)NC(=O)/C(=C\c3ccc([N+](=O)[O-])s3)C2=O)c1	0.57	-6.5	0.1	?	-1.4	7.6	2.9	8.9	i	4.6
Fc1ccc(Cn2nnnc2C(c2ccc(Cl)cc2)N2CC=C(c3ccc(F)cc3)CC2)cc1 (stereo unspecified)	0.706	-0.7	0.2	69.0*	-38.4	-47.5	-6.0	0.0	i	-0.1
Cc1ccc(CN2CCCC(C(=O)c3ccc4c(c3)OCO4)C2)cc1C (stereo unspecified)	0.648	-1.8	0.2	38.0	-1.6	-10.9	-7.7	-0.7	i	-90.4
CC(C)c1ccc(NC(=O)CCNC(=O)N2C[C@H]3C[C@@H](C2)c2cccc(=O)n2C3)cc1	0.75	.	0.1	7.4	.	.	.	4.3	i	-5.3
O=C(CNC(=O)c1cccc(Cl)c1)Nc1ccc(Br)cc1C(=O)c1ccccc1	0.662	9.3	0.3	-5.5	-32.9	-47.6	-7.3	3.7	i	-5.2
COc1ccccc1OCC#CCN1CCCC1	0.69	-7.7	-0.6	15.0	12.4	10.8	-2.9	-0.7	i	-1.7
Cc1cc(Cl)ccc1OCC(=O)N1CCN(C)CC1	0.655	-1.6	-0.1	0.2	.	.	.	-1.0	.	.
CCOC(=O)c1c(NS(=O)(=O)c2ccccc2)n(CCCOC)c2nc3ccccc3nc12	0.701	.	0.3	3.7	.	.	.	i	.	.
COC(=O)C1=C(c2ccc(F)cc2OCc2ccccc2)C[C@@H]2CC[C@H]1N2C(=O)NCc1ccccc1C(F)(F)F	.	12.4	1.0	.	3.0	14.6	-0.5	0.8	i	-0.7
O=C1NC(=S)N(c2ccccc2F)C(=O)/C1=C\c1cccs1	.	-4.9	-0.4	3.8	.	.	.	2.4	.	.
O=C(NC1(C(F)(F)F)Oc2ccccc2O1)N1CCC2(CC1)OCCO2	0.692	-5.9	-0.9	-40.4	4.9	2.9	-1.2	-0.6	.	.
C[C@@H]([C@@H](O)c1ccccc1)N(C)C(=O)Cc1ccccc1	.	-12.3	-0.3	-26.5	5.3	-6.2	-1.4	-0.6	i	-9.5
C[C@]12CCC3C(CC[C@H]4C[C@@H](O)[C@H](O)C[C@]34C)C1CC[C@@H]2O (stereo partly specified)	0.701	-2.5	0.4	.	-35.5	-68.5	1.9	4.4	i	2.3
CCCCn1c(O)c(C(CC)=Nc2ccc(OC)cc2OC)c(=O)[nH]c1=O	0.698	-3.4	0.5	15.0	.	.	.	6.3	.	.
COC(=O)C(O)(c1c(C)[nH]n(-c2ccccc2)c1=O)C(F)(F)F (stereo unspecified)	0.806	4.1	0.8	2.2	.	.	.	84.9*	.	.

Screening results: PubChem BioAssay, several laboratories
